Bioassay records (PubChem)
Tgondii IFNg – T. gondii growth inhibition with IFN-gamma, primary screen, cell-based; Toxoplasma gondii growth in IFN-gamma-treated host cells; hits give low values; reference of the scale not given here; 69,000 tested, 3.8% active; activity change, negative = inhibition, %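 (about 20 µM by stock and volumes)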; AID 1259416, 2018;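 active = below -70%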;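 note: host cells are HeLa cells infected with Toxoplasma gondii; parasite growth read as luciferase light; one replicate is shown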
* = called active by the depositor; i = inactive. Only part of the results is shown; count on the stated rates, not on these rows.

SMILES	Tgondii IFNg
CCC1NC(=O)c2cc(S(N)(=O)=O)c(Cl)cc2N1 (stereo not given)	13
COC1C2CCC1N(C(=O)c1cscn1)C2 (stereo not given)	98
COc1cccc(C2CCCCN(C)C2=O)c1 (stereo not given)	-14
O=C1Nc2ccccc2NC12CCN(c1ncnc3[nH]ccc13)CC2	-59
O=C(c1ccco1)N1CCC2(CC1)COC(COc1ccccn1)C2 (stereo not given)	-2
CN(C)C(=O)C[C@@H]1CC[C@@H]2[C@H](COc3ccc(NC(=O)C4CCCCC4)cc3C(=O)N2C)O1	14
Cc1ccc(SC2CCN(Cc3cc4n(n3)CCNC4)CC2)cc1	-50
CN(C)C(=O)Cc1nnc2n1CCN(Cc1cnn(C)c1)C2	-6
CN(CCCO)C(=O)c1cccc(CC2CCNCC2)c1	6
CCN1CCOCC12CCN(C(=O)c1cnccn1)CC2	-11
O=C(c1cc(CN2CCOCC2)on1)N1CC(Oc2ccc(F)cc2)C1	12
CCC(=O)N1[C@@H]2c3ccc(-c4ccccc4F)c(=O)n3C[C@H]1[C@H](CO)[C@H]2C(=O)NC1CCC1	-20
O=C(O)CCC(=O)Nc1ccc(S(=O)(=O)N2CCCC2)cc1	151
Cc1ccc(-c2coc(-c3ccc(NS(=O)(=O)c4ccc(C(C)C)cc4)cc3)n2)c(C)c1	15
CN(CC(=O)NC1CC(=O)N(c2ccc(F)cc2)C1)Cc1ccccn1 (stereo not given)	2
CCc1nc(-c2c(-c3ccccc3)ncn2Cc2ccc(CO)cc2)c(C)[nH]1	-3
COCc1cc(CNC(=O)c2cn3cc(Cl)ccc3n2)[nH]n1	-11
CC(C)[C@@H]1C/C=C\CCNC(=O)[C@H](C)CC(=O)N1	-12
COc1ccc(CN2CCCCCC2)cc1OCC(O)CN1CCCCCCC1 (stereo not given)	-31
Cc1nn(CC(=O)N2CCN(C(C)C)CC2)c(=O)c2nc(-c3ccccc3)sc12	-34
Cc1ccc(-c2noc(CCNC(=O)c3cc(C4CC4)[nH]n3)n2)cc1	17
Cc1ncsc1CCC(=O)N(C)Cc1csc(C(C)C)n1	7
Cc1cc(C)n(Cc2ccc(C(=O)Nc3ccc(N4CCCCC4)c4nonc34)o2)n1	23
CN(C)C1CCN(C(=O)Cc2cccc(F)c2)C(C(=O)O)C1 (stereo not given)	3
CCOc1ccc(NC(=O)C2CCCN(S(=O)(=O)c3ccc(OC)cc3)C2)cc1 (stereo not given)	3

An excerpt of these results, with bars between the fields.
mol | Tgondii IFNg
CCN1CCOCC12CCN(C(=O)c1cnccn1)CC2 | -11
O=C(c1cc(CN2CCOCC2)on1)N1CC(Oc2ccc(F)cc2)C1 | 12
CCC(=O)N1[C@@H]2c3ccc(-c4ccccc4F)c(=O)n3C[C@H]1[C@H](CO)[C@H]2C(=O)NC1CCC1 | -20
O=C(O)CCC(=O)Nc1ccc(S(=O)(=O)N2CCCC2)cc1 | 151

Continued.
SMILES	Tgondii IFNg
COc1ccccc1NC(=O)N1CCC2(CC1)Nc1ccccc1-n1cccc12	-39
CC(C)NC(=O)N1Cc2cc(C(=O)NC3Cc4ccccc4C3)nc(-c3cccc(-c4cccnc4)c3)c2[C@H]1CCO	-57
O=C(NCc1cc(F)cc(F)c1)[C@H]1[C@H](CO)[C@H]2Cn3c(cccc3=O)[C@@H]1N2C(=O)c1cnccn1	0
CCn1ccc(-c2c(-c3ccccc3)ncn2Cc2cccnc2-n2cncn2)n1	-60
CCN1CCn2cc(C(=O)N3CCN(c4ccccc4Cl)CC3)nc2C1	44
Cc1ccc(NC(=O)N2CCN(Cc3nc(-c4cccc(Cl)c4)oc3C)CC2)c(Cl)c1	1
CCOc1ccc(CC(=O)NCCc2csc(-c3cccc(C)c3)n2)cc1	i
O=C(c1ccc(N2CCNCC2)nc1)N1CCC(CCc2ccccc2)CC1	-53
CC(C)(C)c1oncc1C(=O)N1CCOCC1	35
Cn1c(=O)oc2cc(S(=O)(=O)N3CCC4(CC3)Nc3cc(F)ccc3-n3cccc34)ccc21	19
CNC(=O)c1cccnc1N1CCOCC(CN(C)C)C1 (stereo not given)	8
CCOC(=O)C1(Cc2ccccc2)CCN(Cc2ccc(C#CC(C)(C)O)cc2)CC1	-13
CCN(CC)c1ncnc2c1cnn2CC(=O)NCc1cccc(C(F)(F)F)c1	146
COc1cccc(C(=O)N2CCN(S(=O)(=O)c3cc4c5c(c3)CCC(=O)N5CCC4)CC2)c1	-15
O=C(CSc1nc2ccccc2o1)c1ccc2c(c1)Cc1ccccc1-2	7
C[C@H]1CN([C@@H](C)CO)C(=O)c2c(c3ccccc3n2C)-c2ccccc2CO[C@@H]1CN(C)C(=O)[C@@H](Cc1ccccc1)N(C)C	4
CN(Cc1cc(-c2cccs2)n[nH]1)C(=O)c1onc2ccccc12	7
COc1cc(OC)cc(-c2nnc(SCc3nc4ccccc4c(=O)[nH]3)o2)c1	-27
CCOc1ccc(C(=O)Nc2ccc(-c3nc(Cn4nc(C)cc4C)c(C)o3)cc2)cc1	-62
CCCCC(=O)Nc1ccnn1CC1=CCCN(C)C1	-1
Cc1cnccc1N1CCCN(C(=O)Cc2nonc2C)CC1	0
CN1C[C@H](C(N)=O)[C@@H](c2ccc(CN(C)S(=O)(=O)c3ccc4c(c3)OCCO4)cc2)C1	26
CCc1ccc(NC(=O)Cn2c(=O)cc(C(=O)N3CCc4ccccc4C3)c3ccccc32)cc1	-1
Cc1nc(Cn2nc(C3CCNCC3)n(Cc3ccccc3)c2=O)cs1	26
CC(=O)N1CCC2(CC1)OC(=O)C(C)=C2C(=O)NCCCN1CCC(N2CCCCC2)CC1	72
SMILES	Tgondii IFNg
CC(C)CCn1c(=O)n(Cc2ccccn2)c2cc(C(=O)O)ccc21	-17
COc1ccc(-c2nc(C)c(CCNC(=O)C(=O)Nc3ccc(F)cc3)s2)cc1OC	-30
O=c1[nH]c(SCc2c(Cl)cccc2Cl)nc2ccnn12	68
COc1cc(-c2cc(OC)c(C)cc2OC)c(OC)cc1C	-24
O=C1CSC(=Nc2cccc(C(F)(F)F)c2)N1Cc1ccccc1	-68
Cc1cc2nc3n(c2cc1C)C(=O)C1C2c4ccccc4C(c4ccccc42)C31 (stereo not given)	-17
Cc1ccccc1S(=O)(=O)N1C[C@@H]2N[C@H](C1)C2c1ccc(/C=C/c2ccccc2)cc1 (stereo not given in full)	-47
Cc1c(NC(=O)c2ncoc2-c2ccc(F)cc2)c(=O)n(-c2ccccc2)n1C	-32
COc1ccc(CC2CN(C(=O)c3cnc(-c4ccccc4)nc3)CCO2)cc1 (stereo not given)	9
O=C(CCCn1nnc(-c2ccc(F)cc2)n1)Nc1cnc2n1CCCC2	4
CC(C)n1cnc2c(NCC3CC3)nc(C3CCN(C(=O)c4cccc(F)c4F)CC3)cc21	-39
Cc1ccc(NC(=O)Cn2ncc3c(N4CCN(c5ccccn5)CC4)ncnc32)cc1	99
CC(C)CN1C(=O)CCc2cc(NS(=O)(=O)c3cccc(Cl)c3)ccc21	-80*
CC(NC(=O)NC(C)(C)C)c1ccccc1 (stereo not given)	-19
Cc1cccc(NC(=O)N2CCC(c3nc(CCNC(=O)C(C)C)cs3)CC2)c1	-26
COc1ccc(C#Cc2ccc3c(c2)[C@H]2[C@H](CCN2Cc2nccs2)[C@H](CO)N3)cc1	22
COc1ccc(S(=O)(=O)Nc2ccc3c(c2)C(=O)N([C@H](C)CO)C[C@H](C)[C@H](CN(C)Cc2ccc(C(F)(F)F)cc2)OCCCC[C@H](C)O3)cc1	-111*
CC(=O)OCC(=O)[C@H]1CCC2C3CC=C4C[C@@H](O)CC[C@]4(C)C3CC[C@@]21C (stereo not given in full)	-35
CCc1nc(OCC(=O)N(C)c2ccccc2)c2ccccc2n1	2
O=C(CN1C(=O)CCc2cc(Br)ccc21)Nc1ccc(OC(F)(F)F)cc1	-18
COc1cccc(C(=O)N2CCC3(CC2)Nc2ccccc2-n2cccc23)c1	46
CC1=C(C(=O)Nc2c(F)c(F)c(F)c(F)c2F)C2(CCN(Cc3ccccc3)CC2)OC1=O	49
Cc1ccccc1NC(=O)C[C@H]1CC[C@H]2[C@@H](COc3ccc(NC(=O)NC(C)C)cc3C(=O)N2C)O1	18
Cc1c(F)cccc1NC(=O)c1cncc(NS(=O)(=O)c2ccc(Br)cc2)c1	-29
CCSc1nc(CC(=O)NCCN2CCC(O)CC2)cs1	1

Laid out differently: results already given.
| mol | Tgondii IFNg |
| --- | --- |
| CCc1nc(OCC(=O)N(C)c2ccccc2)c2ccccc2n1 | 2 |
| COc1ccc(C#Cc2ccc3c(c2)[C@H]2[C@H](CCN2Cc2nccs2)[C@H](CO)N3)cc1 | 22 |
| CC(C)CN1C(=O)CCc2cc(NS(=O)(=O)c3cccc(Cl)c3)ccc21 | -80* |
| Cc1c(F)cccc1NC(=O)c1cncc(NS(=O)(=O)c2ccc(Br)cc2)c1 | -29 |
| O=C(CN1C(=O)CCc2cc(Br)ccc21)Nc1ccc(OC(F)(F)F)cc1 | -18 |
| Cc1ccccc1S(=O)(=O)N1C[C@@H]2N[C@H](C1)C2c1ccc(/C=C/c2ccccc2)cc1 (stereo not given in full) | -47 |
| COc1ccc(-c2nc(C)c(CCNC(=O)C(=O)Nc3ccc(F)cc3)s2)cc1OC | -30 |

Continued.
SMILES	Tgondii IFNg
CO[C@@H]1CN(C)C(=O)c2ccc(NS(C)(=O)=O)cc2OC[C@H](C)N(C(=O)CN(C)C)C[C@H]1C	-7
Cc1ccc2oc(CN3CCCC(Cn4ccnc4)C3)c(C)c2c1 (stereo not given)	-9
COc1cc(-c2nnc(C3CCCCC3)o2)ccc1OCc1ccccc1	-81*
CC(=O)NC12CC3CC(C1)CC(C(=O)N1CCCC(c4nc5ccccc5[nH]4)C1)(C3)C2 (stereo not given)	14
CCCS(=O)(=O)N1CCC2C(C[C@@H](Cn3cncn3)N2C)C1 (stereo not given in full)	-4
COC(=O)c1cc(Oc2ccc(C(=O)OC)cc2N)cc(C(=O)OC)c1	30
COCCNC(=O)N1CC2(CCN(Cc3ccco3)CC2)c2ccccc21	-4
COc1ccc(-c2cc(CC(=O)c3ccccc3)cc(-c3ccc(OC)cc3)n2)cc1	-57
COc1ccc(C2c3[nH]c4ccccc4c3CCN2C(=O)CCC2CCCC2)cc1 (stereo not given)	-55
Cn1cc(-c2cnc(Nc3ccccc3)nc2)cc1C(=O)Nc1cccc(O)c1	-67
Cc1ccc(CN2Cc3nnn(C)c3C(COCc3ccccn3)C2)s1 (stereo not given)	-51
COC(=O)c1cc(NS(=O)(=O)c2cccs2)ccc1Cl	-32
c1ccc(-c2csc3ncn4cnnc4c23)cc1	65
O=C(c1cccc(F)c1)N1CCn2nnc(COc3ccccn3)c2C1	-2
CC(C)CN1CCC(NC(C)c2nncn2C)CC1 (stereo not given)	-4
COc1cccc(NC(=O)Cn2c(=O)cc(C(=O)N3CCc4ccccc4C3)c3ccccc32)c1	-14
Cc1nn(C)c(Cl)c1CN1CCN2C(=O)CNC(=O)C2C1 (stereo not given)	16
C=CCn1c(=O)c(C(=O)Nc2cccc(C)c2)c(O)c2ccccc21	35
CCn1nc(C)c(NC(=O)CN2CCN(C(C)=O)CC2)c1C	16
COc1ccc(-c2nc(N3CCN(Cc4ccc5c(c4)OCO5)CC3)c3ccccc3n2)cc1	-34
COCCN1C(=O)CCc2cc(NC(=O)c3ccccc3C)ccc21	34
Cc1cc(S(=O)(=O)Nc2cc(-c3ccccc3)sc2C(N)=O)c(C)cc1Cl	-19
CCOC(=O)N1CCC2(CC1)OC(=O)C(C)=C2C(=O)NCc1ccc(Cl)cc1	-39
c1cc(-c2nccn2CCN2CCCCC2)cc(-n2cccn2)c1	1
CC1(C(=O)NCc2ccc(F)cc2F)CCN(C(=O)c2ccccc2)CC1	30
SMILES	Tgondii IFNg
COc1ccccc1S(=O)(=O)N[C@@H]1C=C[C@@H](CC(=O)N2CCOCC2)O[C@@H]1CO	3
CO[C@@H]1CN(C)C(=O)c2ccc(NC(=O)c3ccccc3F)cc2OC[C@@H](C)N(C)C[C@H]1C	149
COc1cccc(C2(O)CCCC3CN(S(=O)(=O)c4ccccc4F)CC32)c1 (stereo not given)	11
O=C(CSc1n[nH]c(Cc2ccccc2)n1)Nc1cccc(Cl)c1	28
Cc1[nH]cnc1C(=O)N1CCCC(O)(CN(C)C)C1 (stereo not given)	25
CCOc1cccc(CC(=O)N2CCc3c([nH]c4ccccc34)C2c2ccc(C)cc2)c1OCC (stereo not given)	i
C/C=C/c1ccc([C@H]2[C@H](CO)N3C(=O)CN(C(=O)Nc4cccc(OC)c4)C[C@@H]23)cc1	-4
C[C@]1(Cn2ccnn2)C(C(=O)O)N2C(=O)CC2S1(=O)=O (stereo not given in full)	1
CCN1c2ccccc2C(=O)NC12CCN(C(=O)c1cc(C)cc(C)c1)CC2	-29
C/C(=C\c1ccco1)CN1CCCC1c1ccccn1 (stereo not given)	24
Cc1nsc(NC(=O)NCc2cccc(CN3CCCC3)c2)n1	0
CCCCC1CCC(c2noc(-c3ccc(F)cc3)n2)CC1 (stereo not given)	3
CNc1nc(-c2ccc(F)cc2)cs1	-5
CCN(C)c1ccnc(C2COCCN2Cc2ccccc2OC)n1 (stereo not given)	4
CCOc1ccccc1CC(=O)N1C[C@H]2C[C@H](O)[C@H](O)C[C@H]2C1	-6
O=C1CCCN1[C@@H]1CN(c2nncs2)C[C@H]2CCCO[C@H]21	2
O=C(Nc1ccc(OC(F)(F)F)cc1)C1CCN(S(=O)(=O)c2ccc3[nH]c(=O)ccc3c2)CC1	-87
Cc1cc(SCc2ncon2)c(C)cc1Cl	-2
CCOc1ccc2oc(=O)cc(CN3CCN(Cc4nc(-c5cccc(C)c5)oc4C)CC3)c2c1	8
O=c1ccn2c(n1)O[C@H]1[C@H](O)[C@@H](CO)O[C@H]12	18
O=C(CS(=O)CC(=O)Nc1ccc(Cl)cc1)NCc1cccs1 (stereo not given)	-26
